From PubChem
PKD1 inh: inhibitors of human PKD1 kinase | PKD1 kinase fluorescence polarization assay | actives 0.056% (n = 200,000) | inhibition, %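 (about 10 µM by stock and volumes)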;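 active = inhibition of 50% or more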;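 also: controls were vehicle for no effect and a reference inhibitor for full effect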
Insulin prom inh: TRM-6 insulin promoter activity inhibition; TRM-6 cells (human fetal islet line), insulin promoter-eGFP reporter, imaging; reporter expression induced with tamoxifen; inhibition, % at 2 µM; actives 0.9% (n = 130,000); AID 1273;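 active = inhibition above the mean plus 3 SD, with well images judged a real hit on visual review, cut at about 60% in these data, passing the limit was not always enough; inconclusive = inhibition over the cutoff but images rejected on review; inactive = inhibition not above the cutoff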
RGS16-Gao HTS: modulates binding between human RGS16 and Galphao; O15492+P09471; bead-based flow cytometry RGS16-Galphao binding, fluorescence; actives lie on both sides; binding response (% of control), % at 10 µM; actives 0.38% (n = 220,000);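 active = below 25% or above 175%, edge rows of some plates excepted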;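 also: Galphao activated by GDP with aluminum fluoride before binding; 100% = wells without compound and 0% = beads without RGS; some results beyond the cut were filed as inactive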
Target sequence (O15492 whole entry, looked up): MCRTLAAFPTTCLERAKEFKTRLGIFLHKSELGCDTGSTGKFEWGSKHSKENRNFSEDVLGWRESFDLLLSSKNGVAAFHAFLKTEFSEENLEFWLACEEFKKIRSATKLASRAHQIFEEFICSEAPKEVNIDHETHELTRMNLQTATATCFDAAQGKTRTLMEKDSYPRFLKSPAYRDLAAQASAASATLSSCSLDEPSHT
Target sequence (P09471 whole entry, looked up): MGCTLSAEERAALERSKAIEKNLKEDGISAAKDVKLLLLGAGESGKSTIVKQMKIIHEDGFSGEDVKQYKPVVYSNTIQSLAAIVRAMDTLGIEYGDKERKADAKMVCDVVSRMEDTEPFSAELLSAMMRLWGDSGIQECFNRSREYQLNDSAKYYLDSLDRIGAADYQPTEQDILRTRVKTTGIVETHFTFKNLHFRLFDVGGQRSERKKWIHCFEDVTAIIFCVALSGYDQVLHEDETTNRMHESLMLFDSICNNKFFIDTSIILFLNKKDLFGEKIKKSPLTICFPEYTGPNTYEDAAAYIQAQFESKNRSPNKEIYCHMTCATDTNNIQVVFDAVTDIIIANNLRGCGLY
HSV replic up: HSV replication enhancement. actives 0.005% (n = 220,000). maximum fold increase. HSV replication augmentation in cells, fold increase;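 active = peak rise of 1.5-fold or more in the series; inconclusive = self-fluorescent or not available for retest; tested in PC3 cells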;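 also: first round at 10 µM; read as green reporter fluorescence; hits show the peak of a series up to 25 µM; 1 = signal of infected wells without compound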
GALR2 agonist: agonists of human galanin receptor 2 (GALR2); O43603; GALR2-expressing cells, agonist activation read-out; activation, %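 (tested at 5 µM)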; actives 0.48% (n = 140,000);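 active = above mean plus 3 SD of all compounds, about 5% in these data, not always enough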;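 also: 0% = vehicle buffer wells and 100% = reference agonist at full effect; tested in CHO reporter cells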
Target sequence (O43603 whole entry, looked up): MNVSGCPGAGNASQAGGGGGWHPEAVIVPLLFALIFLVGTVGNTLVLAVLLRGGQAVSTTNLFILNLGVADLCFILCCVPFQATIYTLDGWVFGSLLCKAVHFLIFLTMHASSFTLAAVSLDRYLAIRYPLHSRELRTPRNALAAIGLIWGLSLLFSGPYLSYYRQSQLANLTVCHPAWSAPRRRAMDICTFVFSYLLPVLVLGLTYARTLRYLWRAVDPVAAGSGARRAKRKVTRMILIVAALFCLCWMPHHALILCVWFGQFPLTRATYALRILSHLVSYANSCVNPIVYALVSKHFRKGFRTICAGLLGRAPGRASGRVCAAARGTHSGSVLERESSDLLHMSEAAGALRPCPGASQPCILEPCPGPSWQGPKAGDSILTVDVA
Insulin prom inh cell count: also measured in Insulin prom inh; calls as there; normalized cell count, %; measured here: cell count, toxicity; reference of the scale not given here;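 cells exposed to compound for 48 h; stained nuclei by imaging scaled within each plate; lower means fewer cells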
HSV replic up primary fold: recorded beside HSV replic up, whose call it bears; fold increase; compound at 10 µM; measured here: primary screen fold increase 10 uM; tested in PC3 cells;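 GFP signal in the first replicate; 1 = infected wells without compound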
An asterisk follows results filed as active; i = inactive; ? = inconclusive; nt = not tested or not shown.

SMILES	PKD1 inh	Insulin prom inh	Insulin prom inh cell count	RGS16-Gao HTS	HSV replic up	HSV replic up primary fold	GALR2 agonist
Cc1ccc(N/N=C/c2ccc(N3CCOCC3)cc2)cc1C	-10.7	16.7	138.5	102.0	i	0.96	-3.5
CC1CCc2c(C(=O)Nc3nccs3)csc2C1 (stereo unspecified)	-6.0	51.4	173.6	103.4	i	0.94	-2.3
Cc1cc(C(=O)NN)c(C)o1	-9.3	nt	nt	100.1	i	0.82	nt
COc1ccc(OC)c(NC(=O)COC(=O)c2nc(Cl)ccc2Cl)c1	-1.4	-5.9	132.4	103.6	i	1.09	nt
CCCc1ccc(OCc2nc(-c3ccc(NC(=O)c4ccco4)cc3)no2)cc1	1.6	-43.9	74.2	104.6	i	1.12	0.8
O=C(CCCSc1nnc(SCCCC(=O)c2ccc(F)cc2)s1)c1ccc(F)cc1	-3.0	nt	nt	50.3	i	0.84	-0.5
CCCCCOC(=O)Nc1ccc(S(=O)(=O)Nc2cccc([N+](=O)[O-])c2)cc1	-1.0	36.8	118.7	110.3	i	0.91	0.6
CCN(CC)C(=O)N1CCN(C(=O)c2ccc(C)cn2)CC1	11.1	nt	nt	103.9	i	0.96	-1.5
O=C(N/N=C/c1cc(Br)ccc1O)Nc1ccccc1	6.4	26.7	55.5	90.4	i	0.89	0.3
CC1Oc2ccccc2N(CC(=O)Nc2ccc3c(c2)OCCO3)C1=O (stereo unspecified)	6.3	nt	nt	109.1	i	1.01	-0.7
CCOc1ccc(Br)cc1C1C(C(=O)OC)=C(N)Oc2cc(N(C)C)ccc21 (stereo unspecified)	0.4	nt	nt	99.7	?	nt	1.0
Cc1ccc(S(=O)(=O)NNC(=O)C(O)(c2ccccc2)c2ccccc2)cc1	-1.3	-88.9	105.8	81.7	i	0.96	-2.0
COc1ccc(OC)c(NC(=O)c2ccc(S(=O)(=O)N3CCN(C)CC3)cc2)c1	-13.7	nt	nt	104.7	i	1	-2.8
COc1ccc(-n2c(Cc3ccccc3)nnc2SCC(=O)N2CCCc3ccccc32)cc1	-5.5	29.7	113.6	91.3	i	0.983	-2.0
CSc1nnc(C)c(=O)n1COC(=O)COc1ccccc1	-5.5	53.9	94.2	115.4	i	1	-1.9

Overlap with the part before: three compounds, then new ones.
SMILES	PKD1 inh	Insulin prom inh	Insulin prom inh cell count	RGS16-Gao HTS	HSV replic up	HSV replic up primary fold	GALR2 agonist
COc1ccc(OC)c(NC(=O)c2ccc(S(=O)(=O)N3CCN(C)CC3)cc2)c1	-13.7	nt	nt	104.7	i	1	-2.8
COc1ccc(-n2c(Cc3ccccc3)nnc2SCC(=O)N2CCCc3ccccc32)cc1	-5.5	29.7	113.6	91.3	i	0.983	-2.0
CSc1nnc(C)c(=O)n1COC(=O)COc1ccccc1	-5.5	53.9	94.2	115.4	i	1	-1.9
Cc1ccc(C(=O)CCC(=O)Nc2ccc(Cl)c(S(=O)(=O)Nc3cccc(Cl)c3)c2)cc1	10.7	nt	nt	107.8	i	1.01	-1.5
O=C(NCc1ccc(F)cc1)C(=O)NCC1OCCN1S(=O)(=O)c1ccc2c(c1)OCCO2 (stereo unspecified)	nt	nt	nt	103.7	i	1.12	nt
Cc1sc2ncn(CC(=O)NCCN3CCOCC3)c(=O)c2c1S(=O)(=O)N1CCC(C)CC1	-8.3	-42.3	112.0	99.2	i	0.72	-3.2
Cc1c(OCC(=O)OC(C)C)ccc2c3c(c(=O)oc12)CCC3	-2.3	-6.7	155.9	89.0	i	1.12	-1.2
Cc1ccc(C(=O)N/N=C\c2ccc(OC(=O)c3cccs3)cc2)cn1	-2.7	31.2	129.2	97.3	i	1.02	-1.8
O=C(COc1c(Cl)cc(Cl)cc1Cl)c1ccc(Cl)cc1	-16.3	18.5	100.0	105.7	i	1	-0.9
CC(=O)c1cccc(N(C(=O)CNC(=O)c2ccco2)C(C(=O)NCc2ccco2)c2ccccc2)c1 (stereo unspecified)	-1.3	nt	nt	100.8	i	0.97	nt
CCOC(=O)c1ccccc1NC(=O)c1ccc(N(C)S(C)(=O)=O)cc1	3.7	-388.2	91.7	101.7	i	0.69	-1.1
COC(=O)c1cc(NC(=O)Cc2ccc(OC)c(OC)c2)cc(C(=O)OC)c1	-9.1	0.0	197.3	100.9	i	0.98	-1.6
C/C(CC(=O)Nc1ccc(C)cc1C)=N\NC(=O)C(C)C	5.0	nt	nt	105.4	i	0.98	nt
Cc1ccc(N(CCC#N)C(=O)CN2C(=O)NC(Cc3ccccc3)C2=O)cc1 (stereo unspecified)	-7.2	-25.0	103.7	99.1	i	1.03	nt
COc1cccc(NCCC(=O)c2cccc([N+](=O)[O-])c2)c1	2.1	nt	nt	100.9	i	1.02	nt
CCc1c(C)sc(NC(=O)OC)c1C(=O)N1CCCCC1	3.2	-106.2	98.3	96.0	nt	nt	-0.1
CC(C)CNC(=O)c1ccccc1SCC(=O)NC12CC3CC(CC(C3)C1)C2	-8.7	-58.8	39.1	23.3*	i	1.02	-0.9
COc1cc(NC(=O)Cc2ccc([N+](=O)[O-])cc2)c(C(=O)O)cc1OC	-0.8	-16.7	116.8	95.9	i	0.96	-0.5
CCc1nc2ccccc2n1CCc1ccccc1	-3.8	nt	nt	95.6	i	0.92	nt
CCOC(=O)c1c(CN2CCCCC2C)oc2ccc(OC)cc12 (stereo unspecified)	-5.6	-12.9	79.8	87.0	i	1.02	-1.2
Cc1cccc(NCC(=O)N/N=C\c2ccccn2)c1	1.5	-7.1	98.2	101.6	i	0.94	nt
CCOC(=O)/C(N=Nc1ccc(C(=O)O)cc1[N+](=O)[O-])=C(\C)O	-0.2	nt	nt	100.3	i	0.94	nt
C=CCn1c(=O)c2c3c(sc2n2c(Nc4ccc(OC)cc4)nnc12)CCCC3	-8.2	10.5	142.9	101.1	i	0.937	1.9
Cc1ccnc(N2C(=O)OC(C)(C)C2(C)O)c1 (stereo unspecified)	-4.8	nt	nt	104.5	i	0.78	-0.7
Cc1ccc(C(=O)NNC(=S)NC(=O)c2ccc(Cl)cc2)cc1	-2.6	0.0	118.7	101.1	i	0.74	-0.7
O=C(CCn1c(=O)sc2ccccc21)NCc1ccco1	-1.9	7.1	136.3	183.5	i	1.1	-1.2
CCOCC(=O)Nc1ccc(-c2cn3cccnc3n2)cc1	8.9	-18.2	64.9	102.0	i	1.11	-1.3
O=[N+]([O-])c1ccccc1/C=N/n1c(COc2ccccc2)n[nH]c1=S	-0.6	-6.9	108.9	96.1	nt	nt	-2.2
COc1ccc(CN2C(=O)CN=C2Nc2cc(C)ccc2C)cc1	-1.5	0.0	134.6	105.4	i	1.04	-1.2
CC(=O)Nc1ccc(C(=O)OC2CCOC2=O)cc1 (stereo unspecified)	-7.2	nt	nt	102.1	i	0.89	0.2
CCCCOC(=O)Cn1c(=O)c2c(nc3n2CCCCN3c2ccc(C)cc2)n(C)c1=O	-1.9	7.7	43.4	104.4	i	1	-0.2
CCS(=O)(=O)N1CCN(c2ccc([N+](=O)[O-])c(NCc3cccnc3)c2)CC1	0.7	nt	nt	53.7	i	1.01	nt
COc1ccc(N(CC(=O)NCc2cccs2)S(=O)(=O)c2cccnc2)cc1	5.5	nt	nt	60.1	i	0.97	-3.1
Cc1ccc(S(=O)(=O)N(C)C)cc1NC(=O)C1CCCCC1	nt	nt	nt	104.2	i	1.03	nt
CS(=O)(=O)N(CCc1ccccc1)CC(N)=O	-3.5	-22.7	107.9	97.8	i	0.95	0.0
COc1ccccc1C1NC(=O)NC(C)=C1C(=O)OC1CCCCC1 (stereo unspecified)	2.4	0.0	127.8	95.2	i	0.88	-0.4
CC(=O)C1C(c2ccc(C)cc2)c2c(noc2C)CC1(C)O (stereo unspecified)	0.8	21.4	47.2	120.1	i	1.07	nt
CC1CCc2sc3ncnc(N4CCOCC4)c3c2C1 (stereo unspecified)	0.3	nt	nt	-360.3	i	0.727	0.1
C#CCN(C#N)c1nc(NCC)nc(NC(C)C)n1	-3.2	-31.4	90.9	179.3	i	1.02	-0.5
Brc1ccccc1-c1nnc(CSc2nncn2-c2ccccc2)o1	0.3	nt	nt	99.9	i	1.02	-1.2
CC(C)[C@H](NS(=O)(=O)c1ccc2c(c1)OCCO2)C(=O)OCC(=O)Nc1ccccc1Cl	-11.1	23.7	73.6	102.9	i	1.02	-0.9
CC(C)c1nnc(NC(=O)Cn2nc(-c3ccc4c(c3)OCCO4)ccc2=O)s1	7.1	nt	nt	116.2	i	0.84	-0.2
O=C(O)CCN1CCc2ccccc21	7.9	nt	nt	39.7	i	1.15	0.7
CC(C)(C)NC(=O)COC(=O)c1ccc(S(=O)(=O)N2CCCC2)cc1	-4.5	0.0	79.3	97.6	i	0.89	nt
CC(C)OC(=O)CSc1nnc(-c2ccccc2)n1N	-0.9	69.2	130.8	100.4	i	0.9	-0.8
Cc1nn(-c2nc3ccccc3[nH]2)c(=O)c2ccccc12	-1.9	53.3	49.7	111.1	i	1.06	nt
Cc1ccc(C)c(NC(=O)c2ccc(S(=O)(=O)C(F)F)cc2)c1	-0.4	nt	nt	102.4	i	0.89	-0.1
Cc1cc(C)c(N(C(=O)c2csnn2)C(C(=O)NC(C)(C)C)c2ccncc2)c(C)c1 (stereo unspecified)	3.0	nt	nt	102.3	i	1.08	nt

RGS16-Gao HTS: entries above that show a hit
compound | PKD1 inh | RGS16-Gao HTS | HSV replic up | HSV replic up primary fold | GALR2 agonist
CC(C)CNC(=O)c1ccccc1SCC(=O)NC12CC3CC(CC(C3)C1)C2 | -8.7 | 23.3* | i | 1.02 | -0.9

The results go on.
SMILES	PKD1 inh	Insulin prom inh	Insulin prom inh cell count	RGS16-Gao HTS	HSV replic up	HSV replic up primary fold	GALR2 agonist
O=S(=O)(Nc1ccc2c(c1)nc1n2CCOC1)c1ccc(Cl)cc1	-0.3	nt	nt	94.5	i	1.09	-1.2
Cc1nnc(SCC(=O)NCc2ccc3c(c2)OCO3)n1C	0.2	41.7	59.9	93.9	i	1.01	nt
N#CCCN(C(=O)COC(=O)Cc1ccc(Br)cc1)c1ccccc1	3.8	nt	nt	95.3	i	0.9	nt
Cc1ccc(-c2nnn(CC(=O)NCCc3ccc4c(c3)OCO4)n2)cc1	4.5	nt	nt	99.2	i	0.94	nt
COC(=O)C1=C(C)N(c2cccc3ccccc23)C(=O)C1	-5.1	0.0	111.9	101.4	i	1.04	-2.8
COc1ccc(NC(=O)C(C)NS(=O)(=O)c2ccccc2)cc1Cl (stereo unspecified)	-2.6	-83.9	59.2	99.7	i	0.89	-1.4
CC(C)NC(=O)C1CC=CCC1C(=O)O (stereo unspecified)	-1.2	29.0	102.1	100.4	i	0.9	-1.9
Cc1ccc(O)c(C(=O)c2cc(C#N)c(=O)n(CC3CCCO3)c2)c1 (stereo unspecified)	0.9	-44.7	143.8	96.4	i	0.96	-1.6
O=C(c1cccc(-c2ccc(O)cc2)c1)N1CCN(c2ccc(F)cc2)CC1	-2.0	68.4*	88.6*	105.6	i	0.83	nt
COC(=O)c1cc(OC)c(OC)cc1NC(=O)C(C)c1ccc([N+](=O)[O-])cc1 (stereo unspecified)	-3.6	nt	nt	98.1	i	0.96	-2.5
CCCc1cc2c(=O)n(NC(=O)c3nn(C)cc3[N+](=O)[O-])c(C)nc2s1	1.5	25.0	103.1	95.0	i	1.01	-2.6
S=c1[nH]nc(-c2ccccc2)n1CC1CCCO1 (stereo unspecified)	6.3	32.0	108.1	98.6	i	0.97	-3.3
Cc1ccc(S(=O)(=O)c2nc(S(C)(=O)=O)sc2N(C)C)cc1	6.1	23.1	106.0	100.7	i	0.99	-1.0
CN(C)c1nc(SCCOC(=O)c2ccccc2)nc(N(C)C)n1	-0.4	16.7	142.3	114.3	i	0.88	-3.6
O=C(COC(=O)c1ccccc1NC(=O)c1ccco1)NC1CCCCC1	9.7	23.3	63.5	103.0	i	1.04	-4.0
CN(C)c1ccc(/C=N/NC(=O)c2cnc3ccccc3c2)cc1	nt	nt	nt	100.0	i	0.83	nt
O=C(c1nc2ccccn2c1CNCCCn1cccn1)N1CCCC1	1.7	nt	nt	97.5	i	1.09	nt
COc1ccc(OCCn2nnc(-c3ccc(Cl)cc3)n2)cc1	-4.4	nt	nt	92.4	i	1.07	0.1

Single values from the entries so far.
Entry of COc1ccccc1C1NC(=O)NC(C)=C1C(=O)OC1CCCCC1 (stereo unspecified) in Insulin prom inh cell count: 127.8
Entry of Cc1ccc(C(=O)N/N=C\c2ccc(OC(=O)c3cccs3)cc2)cn1 in Insulin prom inh: 31.2
